Screening data from PubChem.
GLA inh pH 4.5 = inhibitors of human alpha-galactosidase A at pH 4.5 | P06280 | purified enzyme, 4-MU-alpha-Gal fluorescence, pH 4.5 | activity change, negative = inhibition, % at 105 µM | 230,000 tested, under 10 active; inconclusive = small, poorly fitted or top-dose-only inhibition, or a rising curve; inactive = flat fitted curve, though single readings scatter; no compound was filed as active;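 further: 0% = full activity with enzyme and -100% = basal without enzyme; dose as in the result columns while the protocol names 77 µM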
miR-21 reporter = miR-21 reporter, rising signal; 340,000 tested, under 10 active; HeLa miR-21 FLuc reporter, luciferase, 48 h; Potency, µM (highest dose often 38.3 µM), inactives show at the top dose reporter change, positive = more light; active = well fitted rising curve with a large enough effect; inconclusive = small, poorly fitted or top-dose-only effect; inactive = no such curve, though single readings can be large or run the other way;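 further: % of control where 0% means no effect; miR-21 action dims this reporter so a rising signal means less miR-21 action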
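Using DMEM plus 10% FBS, HeLa miR-21-FLuc cells are incubated with test compounds (final up to about 40uM) for 48 hours; firefly luciferase signal is then imaged following reagent-mediated lysis.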
Rango release inh = inhibition of RanGTP-driven Rango-importin beta dissociation. Potency, µM (doses to about 46.1 µM), for inactives: at the highest dose activity change, negative = inhibition. Biochemical FRET Rango-importin beta, RanGTP-induced dissociation. AID 540253. O95149+P62826. 340,000 tested, 0.071% active; active means falling FRET ratio curve, often poorly fitted, with flat reads before Ran was added; inconclusive means other falling curves, or compound fluorescence or quenching; inactive means flat or rising ratio curve;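 further: potency means the concentration at half of the fitted maximal effect; % of control where 0% means no effect; nearly all actives have a fitted effect of over 45% in size; -100% = wells without RanGTP and RCC1; the record marks most hits as doubtful in a second field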
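Compounds sat 5 min at room temperature with 0.1 uM Rango biosensor plus 0.25 uM importin beta, then FRET pre-read. RanGTP-RCC1 (0.6 uM Ran, 2mM GTP, 0.2 uM RCC1) added for 45 min, and the CFP/YFP post-read measured blocked complex dissociation.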
Rango-impB inh = prevents formation of the Rango-importin beta complex; 340,000 tested, 0.031% active; Potency, µM (top dose mostly 92.2 µM), for the others: at the top dose inhibition of complex formation; Rango CFP/YFP FRET sensor + importin beta, 45 min; AID 540263; Q14974; active = rising FRET ratio curve, often small or poorly fitted; inconclusive = mostly compound fluorescence or quenching in the first reads; inactive = flat curves in all reads;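 further: potency means the concentration at half of the fitted maximal effect; 0% = DMSO wells and 100% = buffer wells lacking importin beta; nearly all actives have a fitted effect of over 15% in size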
Target sequence (Q14974 whole entry, looked up): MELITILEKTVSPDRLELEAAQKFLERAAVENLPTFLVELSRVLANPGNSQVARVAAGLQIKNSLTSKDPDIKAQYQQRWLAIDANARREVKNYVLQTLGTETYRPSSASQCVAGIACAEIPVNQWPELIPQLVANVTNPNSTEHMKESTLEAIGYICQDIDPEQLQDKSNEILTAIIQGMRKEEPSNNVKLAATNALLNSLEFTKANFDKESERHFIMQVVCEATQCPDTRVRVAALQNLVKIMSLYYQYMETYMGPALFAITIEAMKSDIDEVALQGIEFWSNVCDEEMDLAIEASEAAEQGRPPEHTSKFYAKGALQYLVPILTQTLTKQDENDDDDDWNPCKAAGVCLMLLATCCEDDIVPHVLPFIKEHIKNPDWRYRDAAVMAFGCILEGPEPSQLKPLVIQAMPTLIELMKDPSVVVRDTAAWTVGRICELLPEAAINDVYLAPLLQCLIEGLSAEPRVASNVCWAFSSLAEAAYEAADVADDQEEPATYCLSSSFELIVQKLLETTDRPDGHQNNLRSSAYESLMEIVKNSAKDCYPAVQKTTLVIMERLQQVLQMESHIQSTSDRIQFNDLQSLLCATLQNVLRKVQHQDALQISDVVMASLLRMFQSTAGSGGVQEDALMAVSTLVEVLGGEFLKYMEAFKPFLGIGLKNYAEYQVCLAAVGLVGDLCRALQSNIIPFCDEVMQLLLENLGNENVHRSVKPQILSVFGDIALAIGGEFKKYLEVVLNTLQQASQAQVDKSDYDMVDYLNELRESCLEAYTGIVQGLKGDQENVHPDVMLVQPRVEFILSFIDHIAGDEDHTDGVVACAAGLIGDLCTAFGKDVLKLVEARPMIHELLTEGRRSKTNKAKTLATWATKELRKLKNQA
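Inhibition scored from the CFP 486 nm/YFP 530 nm FRET ratio 45 min after adding 0.125 microM importin beta to 50 nM Rango biosensor preincubated 5 min with compound (room temperature, PBS with DTT, Tween-20, BSA). No-importin wells as positive control.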
* marks the source's active call; other numbers are inactive results; ? = inconclusive; nt = no result given; & = joins results of further samples. This is a subset; rates above refer to the full screens.

SMILES	GLA inh pH 4.5	miR-21 reporter	Rango release inh	Rango-impB inh
Cc1ccc(Nc2ccc([N+](=O)[O-])cn2)cc1Cl	nt	-29.7%	-9.6%	?
CCOC(=O)C(=O)c1c(-c2ccc(C)cc2)nc2ccccn12	-5.5	-15.0%	22.0%	-0.8%
CC(C)(C)NC(=O)Nc1ccc(Br)cc1	2.1	-36.2%	13.5%	-2.3%
CCSc1ccc2cc(OC)ccc2[n+]1CC	5.9	5.8%	-19.2%	-0.3%
COC(=O)[C@@H](Cc1c[nH]c2ccccc12)NC(=O)c1cc(=O)[nH]c2ccccc12	-2.0	-13.2%	-2.1%	0.6%
CC1CCCCN1C(=O)COC(=O)c1cc(-c2cccs2)nn1-c1ccccc1 (stereo not given)	nt	nt	6.5%	-2.5%
Cc1ccc(Oc2ccccc2/C=N/O)cc1	3.3	7.0%	35.5%	0.7%
O=C(NC1CCCC1)C(c1cccnc1)N(C(=O)c1csnn1)C1CCCC1 (stereo not given)	-5.4	-2.9%	13.9%	4.0%
CC(C)(C)C(=O)N1CCC[C@@]1(CO)C(=O)O	-2.3	-2.5%	2.2%	0.9%
CC1CC(C)CN(C(=O)c2cccc(S(=O)(=O)N3c4ccccc4CC3C)c2)C1 (stereo not given)	nt	nt	17.5%	-0.5%
COc1ccc(C(=O)NNC2=C(C(=O)C(F)(F)F)CCC2)cc1	-6.2	-36.7%	-9.2%	0.5%
CSCCC(NC(=O)c1cccc(C)c1)C(=O)NNC(=O)c1cccs1 (stereo not given)	nt	nt	6.8%	1.4%
O=C(Cc1cccc2ccccc12)N/N=C/c1ccc(OC(=O)/C=C/c2ccco2)cc1	-4.9	-9.5%	-6.0%	-0.6%
Cc1cccn2c(=O)c3cc(C(=O)NCCN4CCOCC4)c(=N)n(CCN4CCOCC4)c3nc12	nt	-2.9%	?	?
CCN(c1ccccc1)S(=O)(=O)c1ccc(OC)c(NC(=O)CNCCc2ccccc2)c1	4.9	?	19.1%	?
NC(=O)C1CCCNC1 (stereo not given)	-12.6	-3.5%	-9.7%	-0.5%
Cc1ccc(NC(=O)CC(C)S(=O)(=O)c2ccc3c(c2)NC(=O)CO3)c(Cl)c1 (stereo not given)	nt	8.3%&9.6%	?	-2.1%
CCOC(=O)COc1cc(N)c(Cl)cc1Cl	-9.6	-1.5%	6.1%	3.0%
CCOC(=O)C1CCCN(C(=O)C(CCSC)NC(=O)COc2ccccc2)C1 (stereo not given)	nt	nt	-12.1%	-2.4%
CCCn1nc2cc(C(=O)NCC34CC5CC(CC(C5)C3)C4)ccc2c1OCC	-13.6	1.8%	26.3%	-1.8%
CCOC(=O)N1CCN(C(=O)CCC2CCCC2)CC1	-7.5	-12.3%	-0.4%	0.2%
COc1ccc(/C=C/c2nc3ccccc3c(=O)o2)cc1	nt	?	3.9%	?
C=CCn1cc(C(=O)NCCN(CC)CC)c(=O)c2cc(S(=O)(=O)N3CCCCCC3)ccc21	nt	-2.6%	-12.7%	-2.5%
O=C(COC(=O)c1cnccn1)c1ccc(Cl)c([N+](=O)[O-])c1	-0.8	0.7%	-18.5%	0.0%
CC(C)n1nc(C(=O)Nc2nnc(SCc3c(Cl)cccc3Cl)s2)c2ccccc2c1=O	4.3	-3.0%	-3.5%	4.8%
Oc1ccc(NCc2ccccc2OCc2ccccc2)cc1	-0.7	?	7.6%	4.6%
COc1ccc2cc(C3(C)NC(=O)N(CC(=O)N4CCCCC4)C3=O)ccc2c1 (stereo not given)	nt	nt	-0.2%	3.1%
CCC(=O)N1C(C(=O)O)CSC1c1ccc(OC)cc1 (stereo not given)	-3.1	2.3%	-8.6%	2.4%
COc1cc(C(=O)N2CC(C)OC(C)C2)c([N+](=O)[O-])cc1OC (stereo not given)	1.3	-2.8%	-2.5%	4.8%
O=[N+]([O-])c1ccc(/C=N/NC2=NS(=O)(=O)c3ccccc32)cc1	-27.1	-1.0%	18.4%	4.1%
O=C(CSc1nnc(-c2ccccc2)n1C1CCCCC1)Nc1ccc(S(=O)(=O)Nc2ccccn2)cc1	-6.3	-11.2%	6.7%	0.2%
COc1ccc(C2SCCN2S(=O)(=O)c2ccccc2)cc1OC (stereo not given)	1.5	1.7%	1.9%	-2.0%
Cc1ccc([N+](=O)[O-])cc1S(=O)(=O)Nc1ccccn1	6.5	-2.0%	-10.0%	-0.9%
CCn1c(C)c(C(C)=O)c(N2CCN(C(=O)c3ccco3)CC2)nc1=S	-3.0	-2.8%	13.2%	0.1%
COc1ccccc1NC(=O)c1cc([N+](=O)[O-])ccc1N1CCOCC1	nt	-8.1%	-4.5%	5.0%
Cc1ccc(N2C(=O)CSCC2=O)cc1	1.6	4.1%	0.0%	-2.7%
O=C(Nc1ccccc1)N(Cc1ccccc1)C1=NCCS1	1.6	-10.9%	-12.4%	0.3%
CCOC(=O)c1ccccc1NC(=O)CSc1nnnn1C1CCCCC1	-1.2	-9.3%	-16.5%	-0.5%
C[C@H](CO)N1C[C@H](C)[C@@H](CN(C)C(=O)Nc2ccccc2)Oc2ccc(NC(=O)Cc3ccccc3)cc2C1=O	nt	nt	-3.3%	2.8%
Cc1ccc(S(=O)(=O)C2(C(=O)N3CCN(C4CCCCC4)CC3)CC2)cc1	1.3	-0.7%	0.4%	-0.5%
CCn1c(SCC(=O)Nc2nc(-c3ccccc3)cs2)nnc1-c1ccccc1	-4.3	18.0%	1.2%	-3.1%
Cc1ccc(/C=N/N2CCN(Cc3cccc4ccccc34)CC2)s1	1.7	-3.5%	-2.9%	-2.3%
CCCCC[C@@H](O)c1cc2ccccc2c(=O)o1	nt	nt	-14.4%	4.0%
Cn1nc(C(=O)NC2CCCCC2)c2c1-c1ccccc1SC2	nt	-12.0%	-4.8%	-2.9%
CC(/C=C1\SC(=S)N(CCCC(=O)Nc2ccc(C(=O)O)cc2)C1=O)=C\c1ccccc1	-11.7	-31.8%	-10.5%	-1.1%
O=C(NC1CCN(Cc2ccccc2)CC1)c1cc(S(=O)(=O)Nc2ccc(F)cc2)ccc1Cl	nt	nt	-0.2%	-0.2%
Cc1ccc(C(=O)NCC(=O)N2CCN(c3cccc(Cl)c3)CC2)s1	nt	nt	2.1%	4.2%
Cc1ccc(S(=O)(=O)N2CCCCC2)cc1C(=O)N1CCN(c2ccccn2)CC1	0.3	3.3%	12.0%	-3.6%
CCOC(=O)Cn1nc(C)c(NC(=O)c2ccc(Br)o2)c1C	nt	0.6%	-9.8%	-0.7%
Cc1cc(C)c2c(n1)sc1c(N3CCN(C)CC3)ncnc12	-2.6	3.1%	?	-0.4%
C=CCOc1c(Cl)cc(CNc2nccs2)cc1OC	0.3	-9.1%	-13.0%	0.4%
Cc1cc(=O)[nH]c(SCC(=O)NC(C)C2CC3CCC2C3)c1C#N (stereo not given)	-0.7	-3.6%	13.5%	-2.9%
Cc1ccnc(NC(=O)c2cc(S(=O)(=O)N3CCCCC3)ccc2Cl)c1	5.2	-0.3%	6.0%	2.1%
CC(C)(C)Cc1nnc(NS(=O)(=O)Cc2ccccc2)s1	4.4	-11.6%	3.6%	-1.1%
O=C(NCC(=O)N(CC1CCCO1)C(C(=O)NC1CCCCC1)c1ccccc1)c1cccs1 (stereo not given)	7.2	-5.6%	0.0%	0.1%
COc1ccccc1C(C(=O)NCc1ccccc1)N(C(=O)c1csnn1)C1CC1 (stereo not given)	nt	-2.3%	-0.3%	3.4%
COc1ccc(S(=O)(=O)Nc2ccc3c(c2)CC(=O)N([C@@H](C)CO)C[C@@H](C)[C@@H](CN(C)Cc2ccccc2)O3)cc1	nt	nt	1.3%	-3.5%
Cc1ccc(C(=O)c2coc3ccc(O)cc23)cc1	nt	-12.0%	3.3%	-1.6%
CC1(CO)COC2(OC1)C(=O)Nc1ccccc12 (stereo not given)	nt	nt	5.1%	-1.7%
COc1ccccc1C1c2ccc3ccccc3c2Oc2ncn(CCCO)c(=N)c21 (stereo not given)	nt	-0.1%	-17.0%	?
Following part:
SMILES	GLA inh pH 4.5	miR-21 reporter	Rango release inh	Rango-impB inh
Cc1cccc(C)c1NC(=O)COC(=O)c1cc(=O)[nH]c2ccccc12	nt	nt	3.2%	0.8%
CC(=O)c1ccc(-n2nncc2C(C)(C)C)cc1	-9.3	-4.6%	-13.4%	-1.6%
Cc1ccc(C)c(NC(=O)CN2C(=O)CC(C)S(=O)(=O)c3ccccc32)c1 (stereo not given)	nt	-3.2%	-6.7%	6.3%
CCOc1ccccc1-n1c(SC(C)C(=O)NCC2CCCO2)nc2ccccc2c1=O (stereo not given)	nt	nt	-1.9%	2.8%
CC1(C)CC(=O)c2cnc(NC(=O)Cc3ccc(Cl)cc3)nc2C1	1.4	-8.2%	13.7%	0.8%
Cc1cc(-c2nnc(CCC(=O)NCc3cccc(C(F)(F)F)c3)o2)no1	nt	-16.6%	4.6%	6.0%
Nc1nc2n(n1)C1(CCCCC1)C1=C(CCCC1)N2	-5.2	-1.0%	nt	nt
CCOc1ccc(CCN2C(=S)N([C@@H](Cc3ccc(O)cc3)CN3CCCC3CN3C(=S)NC[C@@H]3Cc3ccc(O)cc3)C[C@@H]2CC(C)C)cc1 (stereo not given in full)	nt	nt	16.1%	0.2%
O=C(NCc1ccc(OC(F)(F)F)cc1)C1CC2Cn3c(nc4ccccc43)C2N1c1ccccc1 (stereo not given)	nt	0.3%	-4.7%	?
OCCC1CN(Cc2cccn2-c2cccnc2)CCN1C1CCCC1 (stereo not given)	1.5	-3.6%	1.3%	?
CC1(c2ccccc2)NC(=O)N(CC(=O)Nc2cccc(/C=C/c3ccccn3)c2)C1=O (stereo not given)	nt	nt	14.5%	2.5%
O=[N+]([O-])c1cccc(S(=O)(=O)NCc2ccccn2)c1	nt	3.2%	-1.8%	-8.4%
COc1ccc(-n2nnnc2SCC(=O)N2CCN(C(=O)c3ccco3)CC2)cc1OC	4.4	-8.3%	16.0%	-0.1%
Cc1ccc(S(=O)(=O)c2c(C)cc(C)nc2N2CCOCC2)cc1	1.2	-2.5%	2.6%	0.7%
O=C(NC1CCCCCC1)C1CCN(S(=O)(=O)c2c(Cl)cccc2Cl)CC1	nt	nt	-18.9%	2.2%
Cc1noc(NS(=O)(=O)c2ccc(NC(=O)c3cc(F)c(F)c(F)c3F)cc2)c1C	nt	nt	2.6%	3.2%
O=c1oc2cc(OCc3ccc(F)cc3F)ccc2cc1-c1ccccn1	11.6	-10.3%	-27.3%	?
CC(C)(C)N1CC(c2nc3ccccc3n2Cc2ccc(F)cc2)CC1=O (stereo not given)	-8.5	1.1%	17.1%	-1.0%
Cc1cccc2nc(CSc3nnc(N)s3)cn12	4.5	-25.4%	1.0%	?
O=C(c1ccc([N+](=O)[O-])cc1)N1CCC(Cc2ccccc2)CC1	-3.0	5.2%	-4.2%	0.8%
CC1CCN(C(=O)/C(=C\c2ccco2)NC(=O)c2ccccc2)CC1	nt	-8.6%	6.4%	-1.7%
COCc1cc(C)nc(SCC[N+](C)(C)CC(=O)c2ccc(Br)cc2)c1C#N	3.6	-0.8%	-9.2%	2.3%
Cc1c(Cl)cccc1NC(=S)NCCC(c1ccccc1)c1ccccc1	6.2	13.6%	-0.8%	2.7%
CCN(C[C@H]1N[C@@](Cc2ccccc2)(C(=O)OC)[C@H]2C(=O)N(Cc3ccccc3)C(=O)[C@@H]12)C(=O)c1ccccc1	nt	nt	12.6%	-1.2%
CCOC(=O)[C@H]1[C@H]2COc3cc(OC)ccc3[C@@H]2N2C(=O)CN(CC3CCCO3)C(=O)[C@@]12C (stereo not given in full)	nt	nt	1.0%	-0.9%
CCCCCc1ccc(OCCCC[n+]2ccccc2)c(CCCCC)c1	0.9	?	0.1%	-1.9%
CCCn1cc(S(=O)(=O)c2ccc(F)cc2)c(=O)c2cc(OCC)ccc21	nt	-10.6%	3.5%	-1.1%

Single records (already shown). Order of values: GLA inh pH 4.5 | miR-21 reporter | Rango release inh | Rango-impB inh
CCCCCc1ccc(OCCCC[n+]2ccccc2)c(CCCCC)c1 as listed: 0.9 | ? | 0.1% | -1.9%
Cc1c(Cl)cccc1NC(=S)NCCC(c1ccccc1)c1ccccc1 as listed: 6.2 | 13.6% | -0.8% | 2.7%
CC1CCN(C(=O)/C(=C\c2ccco2)NC(=O)c2ccccc2)CC1 as listed: nt | -8.6% | 6.4% | -1.7%
